Calb biofilm kill: mixtures killing C. albicans biofilm. C. albicans biofilm persisters + clotrimazole, fluorescence viability; primary screen in compound mixtures of four per well. inhibition, % at 7.6 µM. actives 0.02% (n = 120,000). AID 1242;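 active = inhibition above 30.3% in the primary screen of four-compound pools, then above 30% when the compound was retested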;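 also: compounds exposed to preformed 24 h biofilms for 48 h; the number belongs to the whole pool; some results filed as inactive read as strong as hits; inactives centre near 12; 0% = biofilm with clotrimazole alone and 100% = kill control; retested singly at about 60 µM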
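Test system: C. albicans biofilms. Buffer or medium: RPMI/MOPS medium, pH 7.0. Timing: 48 h compound exposure at 37 °C. Technique: Alamar Blue fluorescence. Evaluation: percent inhibition of biofilm viability.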
Numbers without * were called inactive. This is a subset; count on the stated rates, not on these rows.

Preview, four compounds:
Structure	Calb biofilm kill
O=C(NCCC1=CCCCC1)c1ccc(Cl)cc1	14
O=C(COc1ccc(Cl)cc1Br)NC(=O)NCc1ccccc1	11
C=CCC1(/C=N/O)CCOC(C)(C)C1 (stereo not drawn)	9
CCO[C@H]1OC(C(=O)O)=C[C@@H](c2csc3ccccc23)[C@@H]1CCCO	15

Main list, from the first entry:
Structure	Calb biofilm kill
O=C(NCCC1=CCCCC1)c1ccc(Cl)cc1	14
O=C(COc1ccc(Cl)cc1Br)NC(=O)NCc1ccccc1	11
C=CCC1(/C=N/O)CCOC(C)(C)C1 (stereo not drawn)	9
CCO[C@H]1OC(C(=O)O)=C[C@@H](c2csc3ccccc23)[C@@H]1CCCO	15
COc1ccc(-c2csc(NC(=O)CN3C(=O)CCC3=O)n2)cc1	18
Cn1cc(CNC(=O)CC2C(=O)NCCN2CC(C)(C)C)cn1 (stereo not drawn)	13
CC(C)c1ccc(S(=O)(=O)N2CCN(C(C)C(=O)Nc3ccccc3-c3ccccc3)CC2)cc1 (stereo not drawn)	17
CCn1nc(C)cc1C(=O)N1CCCC(C(=O)c2cccc(OC)c2)C1 (stereo not drawn)	13
COc1cc(C(C(=O)NC2CCCC2)N(C(=O)Cc2cccs2)C2CC2)cc(OC)c1OC (stereo not drawn)	7
COc1cccc(NC(=O)Nc2nnc(N3CCCCC3C)s2)c1 (stereo not drawn)	11
c1ccc2c(c1)nc(N1CCOCC1)c1ccccc12	10
CCCc1cc(=O)[nH]c(SCC(=O)N2CCCc3ccccc32)n1	33
O=C(O)CSc1cc(NS(=O)(=O)c2cccc([N+](=O)[O-])c2)c2ccccc2c1O	20
Nn1c(SCC(=O)NCCCc2ccccc2)nnc1-c1cccnc1	-18
S=C(NC1CCCC1)N1CCN(c2ccccn2)CC1	19
COC(=O)c1cc(OC)c(OC)cc1NC(=O)c1cccc(OC)c1OC	14
CCOC(=O)CCCCC(=O)c1[nH]c(=O)[nH]c1CSc1nnc2c3ccccc3n(C(C)C)c2n1	16
CCOC(=O)N1CCC(=NNc2ccc(S(N)(=O)=O)cc2[N+](=O)[O-])CC1	10
O=C(CC1C(=O)NC2CCCCC2N1C(=O)c1ccc([N+](=O)[O-])cc1)Nc1ccccc1 (stereo not drawn)	20
Cc1c(OCc2ccccc2)c(=O)ccn1Cc1ccc(F)cc1	20
CC(=O)N[C@@H]1c2c(ccc3ccccc23)OC[C@@H]1COC(C)=O	13
COc1ccc(C(C)NC(=S)NC2CCCC2)cc1OC (stereo not drawn)	18
O=C(c1ccc(Br)cc1)c1cc([N+](=O)[O-])ccc1N1CCOCC1	22
CCOC(=O)C1=NNC(C(=O)c2ccccc2)C1c1ccc(C)cc1 (stereo not drawn)	9
CCn1c2ccc(C)cc2c2nc3cc(C(=O)O)ccc3nc21	5
Cc1ccc([N+](=O)[O-])c(OCCN2CCNCC2)c1	21
Cc1ccccc1Nc1nc(-c2ccccc2)c(C(=O)Nc2cccnc2)s1	17
C/C(=N\NC(=O)c1cccc([N+](=O)[O-])c1)c1cccc(NC(=O)C2CC2)c1	19
COC(=O)Cc1cc(=O)oc2cc(O)ccc12	21
COc1cccc(NC(=O)Nc2nnc(N3C(C)CCCC3C)s2)c1 (stereo not drawn)	23
CCCS(=O)(=O)c1nc(C)cc(C)c1S(C)(=O)=O	14
O=C(CSc1cccc[n+]1[O-])N1CCc2ccccc21	21
Cc1ccc2nc(C)c(C(=O)NN=C3CCCCCC3)n2c1	18
COc1ccc(CN=C2NC(=O)CC(C(=O)Nc3ccc(F)cc3)S2)cc1 (stereo not drawn)	25
Cc1cc(C(F)(F)F)n2ncc(-c3cccc(Br)c3)c2n1	15
COc1cc(CCCN2C(=S)NC[C@H]2Cc2ccc(O)cc2)cc(OC)c1OC	12
O=C(N/N=C/c1ccc2c(c1)OCO2)c1sc2cc(Cl)ccc2c1Cl	14
CN1C(=O)CC(N2CCN(c3ccc(Cl)cc3)CC2)C1=O (stereo not drawn)	10
Cc1c(Br)c(=O)oc2c(Br)c(O)c(O)cc12	1
CCOC(=O)c1cnc(-n2nc(C)cc2C)nc1Oc1ccc(C(=O)OC)cc1	9

Two entries from above in another layout.
> COc1cccc(NC(=O)Nc2nnc(N3C(C)CCCC3C)s2)c1 (stereo not drawn)
  Calb biofilm kill = 23

> CCCS(=O)(=O)c1nc(C)cc(C)c1S(C)(=O)=O
  Calb biofilm kill = 14

(further entries)
Structure	Calb biofilm kill
COCCNC(=O)C(C)Oc1ccccc1 (stereo not drawn)	9
CCCCc1c(C)nc(Nc2ccc(OC)cc2)[nH]c1=O	15
O=C(NCCO)C1COc2ccccc2O1 (stereo not drawn)	0
CCOC(=O)C1(Cc2ccccc2)CCCN(C2CCN(C(C)=O)CC2)C1 (stereo not drawn)	13
CCC(C)[C@H](NC(=O)Nc1ccc(C)cc1C)C(=O)O (stereo partly drawn)	24
CC(=O)C(/C=N/c1ncc(C(F)(F)F)cc1Cl)=C(\C)O	15
C=C(C)CNC(=S)N/N=C(\C)c1cccc(NC(C)=O)c1	14
O=C(C1CCN(C2CCN(C/C=C/c3ccccc3)CC2)CC1)N1CCOCC1	15
COc1ccc(C(=O)CSc2nnc(CC(=O)Nc3ccccc3OC)n2C)cc1	10
CCOC(=O)c1nnc(-c2ccccc2)nc1N1CC(C)OC(C)C1 (stereo not drawn)	10
CC(=O)CCc1oc2c([N+](=O)[O-])cccc2c1-c1ccc(C)o1	29
Cc1ccc(C)c(NC(=S)N(CCc2ccncc2)C(C)C)c1	15
O=C(Nc1c(C(=O)NCc2ccco2)cnn1-c1ccccc1)c1cccc(F)c1	7
FC(F)(F)c1ccc(Nc2nnnc3ccccc23)cc1	17
CNc1nc2ccccc2n(C)c1=O	11
Cc1c(O)ccc(-c2n[nH]c(C(=O)O)c2-c2nc3ccccc3s2)c1O	18
O=C(NC(=S)Nc1nc2ccccc2s1)c1cccs1	10
COc1cccc(CN2CCN(C(=O)c3ccc(-c4ccccc4)cc3)CC2)c1OC	11
OC(CN1CCN(Cc2ccccc2)CC1)c1ccc(F)cc1 (stereo not drawn)	2
COC(=O)CN1C(=O)COc2ccc(Cl)cc21	12
O=C(NCCc1ccccc1)c1ccc(CS(=O)(=O)c2ccc(Cl)cc2)o1	13
O=C(COc1ccccc1)Nc1ccc([N+](=O)[O-])cc1	21
CCn1cc(C(=O)O)c(=O)c2cc(F)c(N3CCN(C(=S)NC(=O)c4ccc(F)c(F)c4)CC3)cc21	17
COc1cccc(NC(=O)Nc2ccc(CC(=O)O)cc2)c1	19
CNc1ccccc(-c2ccc3cc4c(cc3n2)OCO4)c1=O	15
Cc1ccc(-c2cc(C(F)F)n3ncc(C(=O)NN4CCCCC4)c3n2)cc1	8
CC1N(C)c2cc(NC(=O)c3cccs3)c(P(=O)(Nc3ccc([N+](=O)[O-])cc3)N3CCOCC3)cc2C1(C)C (stereo not drawn)	8
CCN(c1ccccc1)S(=O)(=O)c1ccc(OC)c(NC(=O)Cn2cnc3c2c(=O)n(C)c(=O)n3C)c1	7
O=C(C(=O)N1CCN(c2cccc(Cl)c2)CC1)N1CCCCC1	-3
O=C(O)C1CSC2(c3ccc(Br)cc3)CCC(=O)N12 (stereo not drawn)	8
CN1CCN/C1=C(/C(Cl)=C(Cl)Cl)[N+](=O)[O-]	6
CC(C)COP(=O)(c1ccc(N(C)C)cc1)C(Nc1ccccc1)c1cccnc1 (stereo not drawn)	13
CC1=C(C(=O)Nc2ccccn2)C(c2ccc3c(c2)OCO3)C2=C(CC(C)(C)CC2=O)N1 (stereo not drawn)	10
COc1ccc(C(=O)C(Cc2cc(C(C)=O)ccc2OC)N2CCCC2)cc1 (stereo not drawn)	7
COc1ccc(-c2csc(NC(=O)c3ccccc3NS(=O)(=O)c3ccc(C)cc3)n2)cc1	21
Cn1c(=O)cc(OCCCC(=O)NCCC2=CCCCC2)c2ccccc21	10
Cc1ccn2c(Nc3ccc4c(c3)OCO4)c(-c3ccccn3)nc2c1	9
O=C(CN1CCCCCCC1)N/N=C/c1ccccc1F	6
O=C(O)C1CC=CCC1C(=O)NCc1ccc2c(c1)OCO2 (stereo not drawn)	2
CCOC(=O)c1ccc(NC(=O)Nc2ccon2)cc1	13
CC/C(=N\NC(=O)c1ccc(Br)cc1)c1ccccc1	13
C(=N\Nc1ccc2nncn2n1)/c1ccco1	22
O=C(CCN1CCN(c2ccccc2)CC1)NNC(=S)Nc1ccccc1	8
CC(C)NC(=O)/C(C#N)=C/c1cccc(NC(=O)c2ccccc2Cl)c1	5
CCN(CC)CCNC(=O)c1cccc(NC(=O)C(=O)c2ccccc2NC(C)=O)c1	-1
COc1ccc(-n2cc(C#N)c(=O)[nH]c2=O)cc1	-1
C/C(=N/NC(=O)c1sc(=S)n(C)c1C)c1ccccc1	17
COc1cccc(Cn2cnc3c([N+](=O)[O-])c(C)c(C)cc32)c1	1
Cc1ccc2cccc(NC3OC(=O)c4ccccc43)c2n1 (stereo not drawn)	-5
COc1cc2nc(CN(C)Cc3ccc(F)cc3)[nH]c(=O)c2cc1OC	19
S=c1[nH]nc(-c2ccco2)n1/N=C/c1ccccc1Cl	18
COc1cccc(C(=O)Nc2cc(C)on2)c1OC	-1
Cc1ccc(NC(=S)NNC(=O)c2c(Cl)c(C)nn2C)cc1	14
Cc1ccsc1/C=N/NC(=O)Cn1cnc2ccccc21	8
O=C(O)/C=C/C(=O)NC1CCCCCCCCCCC1	18
Cc1ccc(-n2nnc3c(=O)n(CC(=O)NCc4ccccc4)cnc32)cc1	17
Cn1cnnc1SCCCN1C(=O)c2cccc3cccc(c23)C1=O	15
O=C(CN1CCCC1)Nc1ccc(F)cc1	-2
C=CCN1C(=O)C(C)(C)N(C(C)=O)c2ccccc21	16
CCCC(C)C(=O)Nc1ccc(S(=O)(=O)Nc2nccs2)cc1 (stereo not drawn)	15

Later entries.
Structure	Calb biofilm kill
Cc1cccc(NC(=S)N(CCN(C)C)C(C)c2ccco2)c1 (stereo not drawn)	20
O=C(O)c1cn(Cc2ccccn2)c(=O)c2ccccc12	7
Cc1cc(N2CCOCC2)ccc1/C=C1/SC(=O)NC1=O	3
Cc1ccc(-c2cc(C(=O)NC3=NCCS3)c3ccccc3n2)cc1C	8
CCCCN(C(=O)c1cc2ccccc2o1)c1c(N)n(CC(C)C)c(=O)[nH]c1=O	-3
O=C(Cn1c(=O)sc2ccccc21)Nc1nc2c(s1)CCCC2	8
O=C(NC(=O)N1CCN(c2ccc([N+](=O)[O-])cn2)CC1)c1ccccc1F	20
CCN(CC)S(=O)(=O)c1ccc(N2CCOCC2)c(NS(=O)(=O)c2ccc(C)c(C)c2)c1	9
CCC(CC)NC(=O)Nc1cccc(C)c1C	16
COc1ccc2oc(=Nc3ccc(C(=O)O)cc3)c(C(=O)NCc3ccco3)cc2c1	13
CC(O)CNCCOc1ccccc1-c1ccccc1 (stereo not drawn)	16
O=C1c2ccccc2C(=O)N1CCCCN(C(=O)c1ccc(Cl)s1)c1ccc(Cl)cc1	18
COc1ccc(Nc2nc(NCc3ccco3)nc(N3CCOCC3)n2)cc1	18
NS(=O)(=O)c1ccc(NNC(=O)c2ccccc2)cc1	13
COc1ccccc1N1CCN(CC(=O)N2CCCC2)CC1	11
Cc1cc(C)cc(N(CCC(=O)Nc2nnc(C3CC3)s2)S(=O)(=O)c2ccc(Cl)cc2)c1	12
CC(C)(C)C(=O)O/N=C1\CCS(=O)(=O)c2sccc21	15
Nc1c(Cl)cc(Cl)cc1C(=O)OCC(=O)N1CCOCC1	13
O=C(NCCNc1ccc2ccccc2c1)c1cccn2c(=O)c3sccc3nc12	8
O=C(O)CC1(CC(=O)Nc2ccc(Oc3cccc(C(F)(F)F)c3)nc2)CCCC1	22
CS(=O)(=O)N(CC(=O)NCc1cccnc1)C1CCCCC1	13
COc1ccc(OCC(=O)N/N=C2/C=C(C)CC2)cc1	14
Cc1ccc2c(c1)-c1c(ssc1=S)C(C)(C)N2C(=O)c1ccco1	17
CCOC(=O)/C(N=Nc1sc(C(=O)OC)c(C)c1C(=O)OCC)=C(\O)CCl	18
COc1cc(CC(NC(C)=O)C(=O)NC2CCN(C(=O)c3cc(OC)c(OC)c(OC)c3)CC2)cc(OC)c1 (stereo not drawn)	15
O=C(COC(=O)CCSc1ccc(Cl)cc1)NCCc1ccccc1	11
COc1cc(C(=O)O)nc2ccc([N+](=O)[O-])cc12	19
CCOC(=O)c1csc(NC(=O)c2cc(=O)c3ccccc3o2)n1	7
Cc1ccc(NC(=O)CSc2nc(-c3ccco3)cc(C(F)(F)F)n2)cc1C	10
CCOC(=O)c1[nH]c2ccccc2c1NC(=O)C1CCCC1	7
CCc1ccc(-n2c(SCC(=O)c3ccc4c(c3)NC(=O)CO4)nc3ccccc3c2=O)cc1	29
